# EPAC1 agonist = human EPAC1 agonism, validation; Potency, µM, for the others: max response, positive = active, most hits filed as activators; EPAC1 Rap1b BODIPY-GDP exchange, fluorescence; O95398; actives 1% (n = 16,000); active = well fitted activation curve with a large enough effect; inconclusive = small, poorly fitted or top-dose-only effect; inactive = no such curve, though single readings can be large or run the other way;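 note: nearly all actives have a fitted effect of over 70% in size; series mostly up to about 76 or 150 µM; scaled to a cAMP control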
# Target sequence (O95398 whole entry, looked up): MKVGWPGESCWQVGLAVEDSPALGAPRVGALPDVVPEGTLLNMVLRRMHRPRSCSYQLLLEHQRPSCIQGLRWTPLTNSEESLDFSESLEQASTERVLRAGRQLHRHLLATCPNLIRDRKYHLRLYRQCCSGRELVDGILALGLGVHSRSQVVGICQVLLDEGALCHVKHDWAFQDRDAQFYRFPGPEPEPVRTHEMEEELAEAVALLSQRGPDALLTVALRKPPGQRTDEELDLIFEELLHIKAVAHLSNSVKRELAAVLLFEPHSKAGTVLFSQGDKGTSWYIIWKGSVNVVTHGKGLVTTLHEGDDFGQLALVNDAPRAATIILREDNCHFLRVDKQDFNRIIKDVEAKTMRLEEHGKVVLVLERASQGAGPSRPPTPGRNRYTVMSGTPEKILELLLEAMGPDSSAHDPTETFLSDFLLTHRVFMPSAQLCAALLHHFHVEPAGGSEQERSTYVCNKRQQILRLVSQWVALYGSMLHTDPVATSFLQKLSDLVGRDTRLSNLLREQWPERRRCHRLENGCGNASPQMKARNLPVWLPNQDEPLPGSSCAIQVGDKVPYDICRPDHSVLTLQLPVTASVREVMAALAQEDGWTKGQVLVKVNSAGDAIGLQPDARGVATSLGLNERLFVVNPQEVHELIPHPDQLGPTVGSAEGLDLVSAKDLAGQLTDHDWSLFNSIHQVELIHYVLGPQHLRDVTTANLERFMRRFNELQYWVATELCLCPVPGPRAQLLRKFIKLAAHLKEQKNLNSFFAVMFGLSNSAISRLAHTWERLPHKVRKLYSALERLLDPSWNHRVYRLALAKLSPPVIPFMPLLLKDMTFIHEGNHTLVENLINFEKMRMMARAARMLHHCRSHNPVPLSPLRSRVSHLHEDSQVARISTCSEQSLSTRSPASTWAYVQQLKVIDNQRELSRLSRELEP
# * marks the source's active call; other numbers are inactive results; ? = inconclusive; & = joins results of further samples; [ ] = another dose, or the depositor's remark. % is set by controls: 0 for no effect and ±100 for the full control effect; potency is the fitted concentration of half-maximal effect.
SMILES | EPAC1 agonist
COc1ccc(-c2nc(C(=O)N3CCN(C)CC3)sc2-c2ccc(OC)cc2)cc1 | -30.0%[inhibitor]
O=C1c2cccc(O)c2C(=O)c2c(O)cccc21 | -62.8%&2.3%[inhibitor]
Brc1cc(Br)c[n+](CCc2ccccc2)c1 | 21.9%
OC(c1cccnc1)c1ccc2c(c1)CN(Cc1cn(-c3ccccc3)nc1-c1ccccc1)CCO2 (stereo not given) | ?
Cc1cccc(C(=O)NCc2nc(-c3cccc(NC(=O)c4ccoc4C)c3)oc2C)n1 | 19.1%
COc1ccc(-c2coc3cc(OC(C)=O)cc(OC(C)=O)c3c2=O)cc1 | 2.4%
COc1ccc(NC(=O)N2CCCC3(CCN(C(=O)c4ccncc4)CC3)C2)cc1 | ?
C[C@@H]1CCC(=O)N(CC[C@H](Sc2ccccc2)c2ccccc2)CC1 | -15.8%
C[C@@H]1C[C@H]2[C@@H]3CCC4=CC(=O)C=C[C@]4(C)[C@@]3(F)[C@@H](O)C[C@]2(C)[C@H]1C(=O)CO | -12.4%
CN1CCN(c2ncc3ncc(=O)n(Cc4cccs4)c3n2)CC1 | -20.0%
COc1ccc(CCN(C)Cc2cc(-c3cncnc3)ccc2O)cc1OC | 4.2%
O=P(O)(O)C(O)(Cc1cccnc1)P(=O)(O)O | -5.2%
CCCc1nc2c(C)cc(-c3nc4ccccc4n3C)cc2n1Cc1ccc(-c2ccccc2C(=O)O)cc1 | -43.1%[inhibitor]
COc1cccc(Nc2ncc3nc(-c4cc(F)cc(F)c4)c(=O)n(C4CC4)c3n2)c1 | 100µM*
Cc1cnc2ccccc2c1C | 12.1%
COc1cc(CNCc2cc3cc(C)ccc3nc2-c2ccc(F)cc2)cc(OC)c1OC | -2.6%
OC[C@H]1NC[C@H](O)[C@@H](O)[C@H]1O | 11.8%
CCn1c2ccccc2c2cc(CN3CCOc4ccc(C(O)c5cccnc5)cc4C3)ccc21 (stereo not given) | -6.1%
CCCC1O[C@@H]2C[C@H]3[C@@H]4CCC5=CC(=O)C=C[C@]5(C)[C@H]4[C@@H](O)C[C@]3(C)[C@]2(C(=O)CO)O1 (stereo not given in full) | 3.0%&-25.1%
C[C@H]1O[C@@H](n2cc(F)c(=O)[nH]c2=O)[C@H](O)[C@@H]1O | 7.1%
O=S1(=O)CCO[C@H]2Cc3ccccc3[C@H]2N1Cc1ccc(Cl)cc1 | 19.9%
O=c1c(-c2cc(F)cc(F)c2)nc2cnc(N3CCOCC3)nc2n1-c1ccccc1 | 112µM*
COc1cc(-c2ccc(C(F)(F)F)cn2)cc2c1OCCN(S(=O)(=O)C[C@]13CC[C@H](CC1=O)C3(C)C)C2 | 2.1%
CN(C)C(=O)c1ccc(-c2ccc3ncnc(NC4CCNCC4)c3c2)cc1 | ?
CC1CC[C@@]23CCC4(C)[C@@]5(C)CCC6C(C)(C)C(O)CC[C@@]6(C)C5C=C[C@@]4(OC2=O)C3C1C (stereo not given in full) | -57.5%[inhibitor]
COc1ccc2[nH]cc(CCNc3nc(-c4ccc(C(=O)N(C)C)cc4)nc4ccccc34)c2c1 | ?
COc1ccccc1-c1ccnc(-n2ncc(C(=O)N3CCN(C4CCCC4)CC3)c2-c2ccco2)n1 | 6.7%
Cc1ncc(CO)c(C=O)c1O | -1.5%&-30.8%
COC(=O)c1cn([C@H]2C[C@@H](C(=O)N3CCCCCC3)N(Cc3ccsc3)C2)nn1 | 6.0%
COC(=O)C1CCN(Cc2ccc3c(c2)CN(C(=O)C(C)N2CCOCC2)CCO3)CC1 (stereo not given) | -17.2%
COc1cc(OC)c(/C=C/c2ccc3ccccc3n2)c(OC)c1 | ?
CCNC(=O)[C@H]1O[C@H](n2cnc3c(N)nc(NCCc4ccc(CCC(=O)O)cc4)nc32)[C@@H](O)[C@@H]1O | -6.9%
Cc1cnc(SCc2ccccn2)nc1C1CCCN(C(=O)c2ccc3c(c2)OCCO3)C1 (stereo not given) | 6.3%
COc1ccccc1-c1ccc(C(=O)N2CCC(N3CCc4ccccc4C3)CC2)c(N(C)CC2COCCO2)n1 (stereo not given) | -0.7%
COC(=O)[C@H](CC(C)C)N(Cc1ccccc1)S(=O)(=O)N(Cc1ccccc1)[C@@H](CC(C)C)C(=O)OC | ?
O=c1c(-c2ccccc2)nc2cnc(N3CCOCC3)nc2n1C[C@H]1CCCO1 | -24.8%
CS(=O)(=O)N1CCC2(CCN(Cc3nccs3)CC2)CC1 | -30.4%[inhibitor]
OC1(c2ccc3c(c2)CN(Cc2ccccn2)CCO3)CCN(c2ccccc2F)CC1 | -21.9%
COc1ccnc(CS(=O)c2nc3cc(OC(F)F)ccc3[nH]2)c1OC (stereo not given) | -20.4%
N#CC(c1ccc(Cl)cc1)c1c(Cl)cc(-n2ncc(=O)[nH]c2=O)cc1Cl (stereo not given) | -37.8%[inhibitor]
Cc1cc(C)n(-c2cccc(C(=O)NCC3Cc4cccc(-c5cccnc5)c4O3)c2)n1 (stereo not given) | 0.4%
CNc1nc(-c2ccc(C(=O)N(C)C)cc2)nc2ccccc12 | -15.6%
CCCN(CCC)c1ccc(/C=C/c2ccnc3ccccc23)cc1 | 100µM*
CCCCCCCC/C=C\CCCCCCCC(=O)NCCc1ccc(O)c(O)c1 | -67.3%[inhibitor]
CS(=O)(=O)c1ccc(-c2cccc3c2OC(CNC(=O)c2ccnc(Cl)c2)C3)cc1 (stereo not given) | 13.0%
N=C(N)c1ccc(N)cc1 | 1.5%
O=C(O)C[C@H]1c2cc(F)ccc2S(=O)(=O)N1C1CCCC1 | 14.9%
CN1CCN(c2ncc3nc(-c4cc(F)cc(F)c4)c(=O)n(-c4ccccc4)c3n2)CC1 | -84.4%[inhibitor]
CC[C@@H](C)[C@H](NS(=O)(=O)c1cccc2ccccc12)C(=O)N[C@H](C=O)Cc1c[nH]c2ccccc12 | -5.2%
COc1cc(NS(=O)(=O)c2ccc(N)cc2)ncn1 | -13.8%&28.3%
Nc1ccc(N=Nc2ccccc2)c(N)n1 | ?
O=C(CN1Cc2ccccc2OC(c2ccccc2)C1)NCc1cccnc1 (stereo not given) | 4.3%
CSc1ncccc1C(=O)NCC1Cc2cc(-c3cnccn3)ccc2O1 (stereo not given) | -0.1%
COc1ccc([C@@H](C)C(=O)c2ccc(O)cc2O)cc1 | -6.8%
CCOC(CN1CCN(CC(C)C(=O)c2ccccc2)CC1)c1ccccc1 (stereo not given) | 8.1%
CSc1ccc(-c2ccc3c(c2)CC(CNC(=O)Cn2nc(C)nc2C)O3)cc1 (stereo not given) | -19.4%
O=c1c(-c2ccc(F)cc2)nc2cnc(N3CCNCC3)nc2n1Cc1ccc(F)cc1 | -25.6%
COc1ccc(CN2[C@@H](CC(=O)O)c3ccc(C(F)(F)F)cc3S2(=O)=O)cc1 | 25.5%
CNc1ncncc1-c1ccccc1OC | -31.5%
COC(=O)c1ccc(C(=O)NCC2Cc3cc(F)cc(-c4cncnc4)c3O2)cc1 (stereo not given) | 14.1%

# Other compounds.
SMILES,EPAC1 agonist
CC(=O)N1CCCC1C(=O)O (stereo not given),?
CS(=O)(=O)N1CCC2(CCN(c3ccccc3)CC2)CC1,-29.6%
Cc1cc(C(=O)Nc2ccccc2-c2nc(CNC(=O)c3cscn3)c(C)o2)c(C)o1,-1.2%
CC(NCCC(c1ccccc1)c1ccccc1)c1ccccc1 (stereo not given),-8.0%
CCn1c(-c2ccccc2F)nc2cc(C(=O)N3CCCC(CO)C3)cc(NC(C)=O)c21 (stereo not given),-8.7%
COc1cc(/C=C/C(=O)O)cc(OC)c1OC,28.7%
COC(=O)N1CCC2(CCN(C(=O)NC(C)C)CC2)CC1,13.7%
CN1CCN(c2ncc3nc(-c4ccccc4)c(=O)n(C)c3n2)CC1,6.9%
CC(O)(COc1ccccc1)c1ccc2c(c1)CN(Cc1cn[nH]c1-c1ccc(F)cc1)CCO2 (stereo not given),6.3%
COc1cc(-c2cnc3ccccc3c2)cc2c1OCCN(C(=O)CCn1nc(C)cc1C)C2,-0.4%
O=c1c(-c2ccc(Cl)cc2)nc2cnc(N3CCNCC3)nc2n1CCc1ccccc1,?
CC(=O)NCCNc1nc(-c2ccccc2Cl)nc2ccccc12,1.7%
N[C@@H](Cc1cc(I)c(Oc2ccc(O)cc2)c(I)c1)C(=O)O,-1.0%
COC(=O)C1=C(C)NC(C)=C(C(=O)O[C@@H]2CCCN(Cc3ccccc3)C2)[C@@H]1c1cccc([N+](=O)[O-])c1,?
COc1cccc(-c2ccc3ncnc(NCc4cccs4)c3c2)c1,?
COc1ccc(OC)c(-c2ccnc(-n3ncc(C(=O)N4CCN(CCO)CC4)c3C3CC3)n2)c1,-1.1%
COc1cc(-c2nc(C)cnc2C)cc2c1OCCN(C(=O)Cn1nc(-c3ccccc3)c3ccccc3c1=O)C2,-8.4%
[N-]=[N+]=Nc1ccc(C(=O)CSC[C@H](NC(=O)CC[C@H](N)C(=O)O)C(=O)NCC(=O)O)cc1,-3.6%
COc1ccccc1OCC(O)CO (stereo not given),8.5%&-13.2%
CC(=O)CC/C=C(\C)CC/C=C(\C)CC/C=C(\C)CCC=C(C)C,6.1%
Cc1noc(C)c1-c1nc(NCc2ccccc2)c2ccccc2n1,-27.1%
CCCCCCCC/C=C\CCCCCCCCOC[C@H](COP(=O)([O-])OCC[N+](C)(C)C)OC(C)=O,-18.8%
O=c1[nH]c(=O)n([C@@H]2O[C@H](CO)[C@@H](O)[C@H]2O)cc1F,0.7%
O=c1cc(-c2ccccc2O)oc2cc(O)ccc12,4.0%
COc1cc(=O)n2c(c1C(=O)NC(C)c1ccco1)CCN(C(=O)c1cn3ccc(C)cc3n1)CC2 (stereo not given),-8.4%
Cc1cc(CC(=O)O)c(C)n1-c1ccc(Cl)cc1,8.8%
CCn1nc(C)c(CN2Cc3ccccc3OC(c3ccccc3OC)C2)c1C (stereo not given),2.4%
CCOC(=O)c1cnc2c(cnn2CC)c1NN=C(C)C,-9.2%&4.5%&-15.2%
Cc1nc2cnc(N(C)C)nc2n(C2CC2)c1=O,-40.8%[inhibitor]
COc1ccc(-c2nc3cnc(OC)nc3n(-c3ccccc3)c2=O)cc1,-15.4%

# 2 entries drawn at random from those above, as already listed:
SMILES,EPAC1 agonist
CCn1nc(C)c(CN2Cc3ccccc3OC(c3ccccc3OC)C2)c1C (stereo not given),2.4%
CCn1c(-c2ccccc2F)nc2cc(C(=O)N3CCCC(CO)C3)cc(NC(C)=O)c21 (stereo not given),-8.7%

# Next section:
SMILES,EPAC1 agonist
CNc1cc(-c2c(C)noc2C)ncn1,2.2%
COc1ccccc1N1CCN(CCCCNS(=O)(=O)c2cccc3c(N(C)C)cccc23)CC1,13.0%
COCCn1c(=O)c(-c2ccccc2)nc2cnc(OCc3ccccc3)nc21,-53.6%[inhibitor]
COc1cc(N)c(N)cc1OC,24.6%
Cc1c(C(=O)N(C)CC2CCCN(C)C2)cnn1-c1nccc(-c2ccco2)n1 (stereo not given),-6.0%
Nc1ncnc2c1ncn2C1CC(O)C(CO)O1 (stereo not given),6.0%&-4.4%
COc1cc(=O)n2c(c1C(=O)NC(C)c1ccco1)CCN(Cc1ccccc1C(F)(F)F)CC2 (stereo not given),7.8%
Fc1ccc(Nc2nc(-c3ccoc3)nc3ccccc23)cc1,15.8%
O=c1[nH]c(=O)n([C@H]2C[C@H](O)[C@@H](CO)O2)cc1F,7.7%&2.2%
CC1(C)C(\C=C/C=C\C=C/C=C2/N(CCCCS(=O)(=O)O)c3ccc4ccccc4c3C2(C)C)=[N+](CCCCS(=O)(=O)[O-])c2ccc3ccccc3c21,?
CCCCNC(=O)O[C@@H]1C[C@@H]2CCN3C(=O)CCC[C@H]([C@H]1CC)[C@H]23,-14.7%
CC/C(=C(\c1ccccc1)c1ccc(OCCN(C)C)cc1)c1ccccc1,?
CC(C)=CCC[C@@](C)(O)[C@H]1CC=C(C)CC1,-43.1%[inhibitor]
Cc1cc(C(=O)N2CCOc3ccc(CN4CCC(Oc5cccnc5)CC4)cc3C2)c(C)o1,-12.7%
COc1ccccc1N1CCN(c2nc(CNC(=O)c3ccc4c(c3)OCO4)nc3ccccc23)CC1,9.6%
O=C(c1ccoc1)N1CCOc2ccc(CN3CCC(Oc4cccnc4)CC3)cc2C1,7.4%
O=c1cc(/C=C/c2ccc([N+](=O)[O-])cc2)c2ccccc2[nH]1,17.6%
Cc1ccnc2cc(Cl)cc(Cl)c12,?
COc1ccc2[nH]cc(CCNc3nc(-c4ccccc4OC)nc4ccccc34)c2c1,?
COCCn1c(=O)c(-c2ccc(OC)cc2)nc2cnc(Oc3cccc(Cl)c3)nc21,19.4%
COc1cc2c(cc1OC)[C@@H](Cc1cc(OC)c(OC)c(OC)c1)[N+](C)(CCCOC(=O)CC/C=C/CCC(=O)OCCC[N+]1(C)CCc3cc(OC)c(OC)cc3[C@H]1Cc1cc(OC)c(OC)c(OC)c1)CC2 (stereo not given in full),6.6%&-11.5%
C=C1C2CC[C@@]3(C)C(c4ccoc4)OC(=O)C[C@@]13OC1CC(=O)C(C)(C)C(C(O)C(=O)OC)[C@]12C (stereo not given in full),8.6%
CCCC(=O)O[C@]1(C(=O)COC(=O)CC)CC[C@H]2[C@@H]3CCC4=CC(=O)CC[C@]4(C)[C@H]3[C@@H](O)C[C@@]21C,12.2%
COc1ncc2nc(-c3cn(C)c4ccccc34)c(=O)n(CCc3ccccc3)c2n1,3.2%
CCCCN(CCC(=O)O)c1ccc(/C=C/c2ccnc3ccccc23)cc1,?
CN1CCN(C2=Nc3ccccc3Oc3ccc(Cl)cc32)CC1,3.9%&-1.6%&-7.1%

# Ordered by length of the SMILES (high to low): 4 of the compounds above.
SMILES,EPAC1 agonist
Cc1cc(C(=O)N2CCOc3ccc(CN4CCC(Oc5cccnc5)CC4)cc3C2)c(C)o1,-12.7%
COc1ccc2[nH]cc(CCNc3nc(-c4ccccc4OC)nc4ccccc34)c2c1,?
COCCn1c(=O)c(-c2ccccc2)nc2cnc(OCc3ccccc3)nc21,-53.6%[inhibitor]
CC(C)=CCC[C@@](C)(O)[C@H]1CC=C(C)CC1,-43.1%[inhibitor]

# Screens deposited in PubChem BioAssay by National Center for Advancing Translational Sciences (NCATS).

# Some of the compounds tested. The share of hits here may be higher or lower than overall.
